Bioassay records (PubChem BioAssay)
KCNQ2 block: KCNQ2 potassium channel inhibitors, primary screen, cell-based, CHO-K1, FluxOR thallium flux, B-score (AID 2156); 310,000 tested, 1.1% active; B-score at 10 µM; Potassium voltage-gated channel subfamily KQT member 2 (Rattus norvegicus), O88943; 20 min; stronger effect = lower value; only compounds with negative scores are shown here; some inactives read as strong as hits;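 active = fluorescence ratio B-score at most minus 3 library SDs, with starting brightness B-score within 2 library SDs, cut at about -5.5 in these data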
Target sequence (O88943 whole entry, looked up): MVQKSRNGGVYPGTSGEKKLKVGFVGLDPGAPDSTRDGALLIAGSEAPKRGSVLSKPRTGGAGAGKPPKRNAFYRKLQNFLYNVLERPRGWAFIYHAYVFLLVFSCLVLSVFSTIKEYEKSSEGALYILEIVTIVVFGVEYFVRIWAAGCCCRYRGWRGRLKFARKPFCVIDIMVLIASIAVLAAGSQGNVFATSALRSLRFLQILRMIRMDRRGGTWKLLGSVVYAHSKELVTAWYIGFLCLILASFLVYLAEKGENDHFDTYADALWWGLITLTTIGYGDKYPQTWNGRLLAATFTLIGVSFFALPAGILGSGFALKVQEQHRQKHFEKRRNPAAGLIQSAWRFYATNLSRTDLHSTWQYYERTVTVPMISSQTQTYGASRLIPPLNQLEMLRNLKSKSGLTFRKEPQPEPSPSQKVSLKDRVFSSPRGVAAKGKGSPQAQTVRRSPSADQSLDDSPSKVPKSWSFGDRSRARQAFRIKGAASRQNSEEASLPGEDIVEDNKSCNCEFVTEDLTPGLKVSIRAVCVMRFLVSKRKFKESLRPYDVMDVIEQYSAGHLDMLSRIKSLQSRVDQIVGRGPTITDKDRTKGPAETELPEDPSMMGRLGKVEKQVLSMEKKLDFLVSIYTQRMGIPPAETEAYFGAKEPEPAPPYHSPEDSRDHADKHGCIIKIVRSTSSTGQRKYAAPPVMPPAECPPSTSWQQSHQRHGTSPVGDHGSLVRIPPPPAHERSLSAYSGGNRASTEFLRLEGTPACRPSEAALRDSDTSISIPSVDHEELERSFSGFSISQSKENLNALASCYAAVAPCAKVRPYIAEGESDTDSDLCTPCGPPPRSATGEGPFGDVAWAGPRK
KCNQ2 block baseline: second read-out of KCNQ2 block, no call of its own (marks repeat the call); B-score; measured here: initial fluorescence intensity artifact check;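 brightness before thallium and not channel activity; 0 = typical well and far values either way flag optical interference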
* = called active by the depositor; i = inactive.

SMILES	KCNQ2 block	KCNQ2 block baseline
O=C(CCc1nc2ccccc2c(=O)[nH]1)NNC(=O)c1cccc(Cl)c1	i	2.1
Cc1c(N2C(=O)/C(=C/c3cccc4ccccc34)SC2=S)c(=O)n(-c2ccccc2)n1C	i	2
CCNc1c(NC(=O)c2cccs2)c(=O)oc2ccccc12	i	-0.66
COc1ccc(N2CC(C(=O)N[C@H](C(=O)NC3CCCC3)C(C)C)CC2=O)cc1 (some centres not stated)	i	-0.65
O=C(NCc1ccccc1)C(c1ccccn1)N(C(=O)c1csnn1)c1ccccc1F (configuration not stated)	i	-0.05
Cc1ccc2[nH]c(=O)c(CN(Cc3ccccc3)C(=S)NCCCN(C)C)cc2c1	i	-0.03
Cc1cc(C)n(CCN(C)C(=O)CCc2nnc(CCC3CCCCC3)o2)n1	i	-0.51
CC(=O)c1c(C)oc2ccc(N(C(C)=O)S(=O)(=O)c3ccc(Br)cc3)cc12	i	-0.03
O=C(c1ccc(Cl)cc1)N1CCn2c1nc1ccccc12	i	2.9
Cc1ccc(NC2CCCN(C(=O)c3cccc4nccnc34)C2)cc1C (configuration not stated)	i	-1.9
Nc1n[nH]c(-c2cccc([N+](=O)[O-])c2)n1	i	-0.86
COC(=O)C1C(=O)C(C(=O)/C=C/c2ccccc2)C(=O)CC1(C)C (configuration not stated)	i	1.1
O=C(c1c(F)cccc1F)N1CCCC(c2nc(-c3cccs3)no2)C1 (configuration not stated)	i	-0.29
c1ccc(-c2nnn(C34CC5CC(CC(C5)C3)C4)n2)cc1	i	0.08
Cc1cc2c(=O)n(CC(=O)NCC(=O)Nc3ccc(C(C)C)cc3)cnc2s1	i	-0.52
COc1ccccc1NC(=O)c1ccccc1Nc1ccccc1	i	2.1
COc1ccc(OC)c(-c2csc(CCn3nc(C)cc3C)n2)c1	i	0.06
CS(=O)(=O)c1ccc2nc(NC(=O)c3cc(-c4ccccc4)nn3-c3ccccc3)sc2c1	i	-0.21
COc1cc(NC(=O)Cc2cccs2)ccc1-n1cnnn1	i	0.21
CC(C)(C)C(=O)CN1C(=O)C2(OCCO2)c2ccccc21	i	-0.27
Nc1cc(N)nc(SCC(=O)Nc2ccc3c(c2)OCO3)n1	i	-0.16
C1=C(c2ccccc2)Nc2nnnn2C1c1cccs1 (configuration not stated)	i	2.3
Nc1nonc1-n1nnc(C(=O)N/N=C/c2ccccc2Cl)c1-c1ccccc1	i	-0.39
CC1(C)CC(=S)Nc2ccccc2S1	i	1.9
O=C(C#Cc1ccccc1)Nc1cccc(F)c1	i	0.71

Further entries
SMILES	KCNQ2 block	KCNQ2 block baseline
O=C(NC1CCCCC1)C(c1ccncc1)N(C(=O)Cc1cccs1)c1ccccc1 (configuration not stated)	i	0.78
NNC(=O)c1ccc(-c2ccccc2F)cc1	i	-0.86
O=C(CP(=O)(O)CC(=O)c1ccccc1)c1ccccc1	i	0.44
O=C(NC1CCCC1)C(c1ccncc1)N(C(=O)Cc1cccs1)c1ccc(F)cc1 (configuration not stated)	i	-0.17
C=CCNC(=O)c1c(CSc2ccc(Cl)cc2)noc1C(=O)NCc1ccccc1	i	-0.52
C/C(=N\NC(N)=O)c1c(F)cccc1F	i	1.2
Cc1cc(NC(=O)COC(=O)CNS(=O)(=O)c2ccc(C)c(C)c2)no1	i	-0.71
N#CC(Sc1ccccn1)c1ccc(Cl)cc1 (configuration not stated)	i	2.5
O=C1CCCN1CN(C(=O)c1ccccc1)c1ccccc1	i	-0.4
CCCCCCSC1=C(C#N)C(c2ccc(O)cc2)CC(=O)N1 (configuration not stated)	i	1.3
CCOc1ccc(NC(=O)CN(C)C(=O)c2cccnc2Sc2ccccc2Cl)cc1OCC	i	-1.5
O=C(C1CCCN(S(=O)(=O)Cc2ccccc2)C1)N1CCc2ccccc21 (configuration not stated)	i	-0.85
COc1ccccc1CNC(=O)CCCc1cn(C)c2ccccc12	i	-0.09
Cc1ccc(S(=O)(=O)NCC(=O)NCc2ccncc2)cc1	i	-0.01
CCOC(=O)C1CCN(Cc2cn(C)nc2-c2ccc(Oc3ccccc3)cc2)CC1	i	0.2
CCOc1ccc(C(C)=O)cc1CSc1nnnn1-c1ccc(O)cc1	i	-1.2
COCCCNC(=O)c1ccc([N+](=O)[O-])c(Cl)c1	i	-0.01
COC(=O)c1cc(N=Cc2c(O)c3ccccc3oc2=O)cc(C(=O)OC)c1	i	1.6
Cc1ccc(NC(=O)C2CCCN(c3ncccn3)C2)cc1F (configuration not stated)	i	2
CCN(CC(=O)Nc1cccc(C(C)=O)c1)S(=O)(=O)c1ccc(OC)cc1	i	0.29
O=C(N[C@@H](Cc1c[nH]c2ccccc12)C(=O)O)c1ccccc1Cl	i	0.34
O=C1CSC(c2ccccc2)N1Nc1nc(N2CCOCC2)nc(N2CCOCC2)n1 (configuration not stated)	i	0.87
CC1(c2ccccc2Cl)NC(=O)N(CC(=O)NCCC2=CCCCC2)C1=O (configuration not stated)	i	2.2
COc1ccc(OC(C)=O)c(C2c3cc(OC)c(OC)cc3CCN2C(C)=O)c1 (configuration not stated)	i	-0.13
Cc1cccc(C(=O)NCCCNC(=O)c2ccc(C)nc2)c1	i	0.22

Part of the list above, with bars between the fields.
smiles | KCNQ2 block | KCNQ2 block baseline
O=C(c1ccc(Cl)cc1)N1CCn2c1nc1ccccc12 | i | 2.9
Cc1ccc(NC2CCCN(C(=O)c3cccc4nccnc34)C2)cc1C (configuration not stated) | i | -1.9

Going on with the list:
SMILES	KCNQ2 block	KCNQ2 block baseline
Cc1cc(Br)ccc1NC(=O)CN1C(=O)C2C3CC(c4ccccc4)C(C3)C2C1=O (configuration not stated)	i	-0.16
O=C(Nc1ccccc1C(=O)N1CCOCC1)c1ccco1	i	-0.5
COc1ccc(CN(CC2CCCO2)S(=O)(=O)c2ccc(C(=O)O)cc2)cc1OC (configuration not stated)	i	-1.3
CCCOC(=O)c1cccc(Nc2nc(-c3cccnc3)nc3ccccc23)c1	i	0.08
Cc1cccc(NC(=O)COC(=O)C2C3CC4OC(=O)C2C4C3)c1C (configuration not stated)	i	-0.08
Cn1c(C(=O)NCCOc2ccccc2Cl)cc(=O)n(C)c1=O	i	0.59
O=C(CSc1n[nH]c(-c2ccccc2)n1)N1CCCC1	i	-0.08
Cn1c(Cc2cccs2)n[nH]c1=S	i	0.45
CCN(CC)CCN(Cc1cc2cccc(C)c2[nH]c1=O)C(=S)Nc1ccccc1	i	0.45
O=C(O)c1ccc(N2C(=O)Nc3ccccc3N2O)cc1	i	-1.2
COc1cc(CC(NC(C)=O)C(=O)NC2CCN(C(=O)Nc3ccc(C)cc3)CC2)cc(OC)c1 (configuration not stated)	i	0.14
Cc1ccc(NC(=O)NNC(=O)COc2ccc3ccccc3c2)cc1	i	-0.79
Cc1ccc(C(=O)Cn2cnc3ccccc3c2=O)cc1C	i	0.76
COc1ccc(NC(=O)CS(=O)(=O)Cc2ccccc2)c([N+](=O)[O-])c1	i	-0.17
O=[N+]([O-])c1cccc(/C=N\N2CCN(c3ccc(Cl)cc3)CC2)c1	i	-0.32
CNC(=O)CC1C(=O)N(c2ccc(Cl)cc2)C(=S)N1NC(=O)c1cccc(F)c1 (configuration not stated)	i	1.1
CC(C)c1ccc(N(CC(=O)N2CCN(Cc3ccccc3)CC2)S(C)(=O)=O)cc1	i	-0.08
CCOC(=O)COn1c(=O)c(-c2cc3ccccc3o2)[n+]([O-])c2ccccc21	i	3.7
O=C1C2CCCN2C(c2ccc(F)c(F)c2)N1c1cccc(Cl)c1 (configuration not stated)	i	0.11
Cc1cccc(NC2=C(NC(=O)c3ccccc3)C(=O)c3ccccc3C2=O)c1	i	0.31
N#CCc1c(C#N)c(N)nc(N2CCN(S(=O)(=O)c3ccccc3F)CC2)c1C#N	i	0.1
Fc1ccc(Sc2cc(Cl)c(-c3ccccc3)nn2)cc1	i	0.44
O=C1[C@@H]2Cc3c([nH]c4ccccc34)C(c3ccc([N+](=O)[O-])cc3)N2C(=O)CN1C1CC1 (some centres not stated)	i	0.51
Cc1ccc(C(=O)COC(=O)CN2C(=O)C3C4CCC(C4)C3C2=O)cc1[N+](=O)[O-] (configuration not stated)	i	1.7
Cc1nc(SC2CC(=O)N(c3ccccc3)C2=O)nc2c1CCCC2 (configuration not stated)	i	1

Compound profiles (already shown).
CCN(CC)CCN(Cc1cc2cccc(C)c2[nH]c1=O)C(=S)Nc1ccccc1 is listed with KCNQ2 block = i; KCNQ2 block baseline = 0.45
NNC(=O)c1ccc(-c2ccccc2F)cc1 is listed with KCNQ2 block = i; KCNQ2 block baseline = -0.86

4 entries from above, ordered by number of heavy atoms, low to high:
SMILES	KCNQ2 block	KCNQ2 block baseline
c1ccc(-c2nnn(C34CC5CC(CC(C5)C3)C4)n2)cc1	i	0.08
O=C1CCCN1CN(C(=O)c1ccccc1)c1ccccc1	i	-0.4
Cc1cccc(NC(=O)COC(=O)C2C3CC4OC(=O)C2C4C3)c1C (configuration not stated)	i	-0.08
CCOc1ccc(C(C)=O)cc1CSc1nnnn1-c1ccc(O)cc1	i	-1.2

The list continues.
SMILES	KCNQ2 block	KCNQ2 block baseline
Cc1nn(CCCC(=O)N2CCc3ccccc3C2)c(=O)c2cc3sccc3n12	i	-0.67
COc1cccc(CN(C)Cc2cc(=O)oc3c(C)c(C)ccc23)c1	i	-0.85
Cc1ccc(OCc2nnc(SCC(=O)c3cccc([N+](=O)[O-])c3)n2C)cc1	i	0.28
CNC(=O)N(O)C1N(/N=C/c2ccc(SC)cc2)C(=S)SC1(C)C (configuration not stated)	i	0.09
COc1ccc(-c2nc(CS(=O)CC(=O)NCCN3CCCCCC3)c(C)o2)cc1OC (configuration not stated)	i	-1.1
O=C(COc1ccccc1)Nc1ccc(F)cc1	i	-1.2
Cc1ccc(/C=N/NC(=O)Cn2ccc(C(F)(F)F)n2)o1	i	-0.01
CC(C)(CO)NC(=O)CC1C(=O)NCCN1CC(c1ccccc1)c1ccccc1 (configuration not stated)	i	0.82
Cc1cc(O)cc2c1C(c1ccc(F)cc1)CC1(CC(C)(C)NC(=S)N1)O2 (configuration not stated)	i	-0.36
CN1CCN(CC(=O)Nc2ccccc2C(F)(F)F)CC1	i	0.58
CN1C(=O)/C(=C/c2ccc(C(=O)NC3CCCC3)cc2)Oc2ccccc21	i	-1.6
COCCn1c(SCC(=O)N2CCC(C)CC2)nc2c([nH]c3ccccc32)c1=O	i	-1.5
Brc1ccc2nc(-c3c[nH]c4ccccc34)cn2c1	i	-1.3
Clc1cccc(CN2CCSCC2)c1	i	1.3
Nc1ccc2nc3c(=O)n(C4CCCCC4)c(=O)[nH]c3nc2c1	i	82
O=C(NNC(=O)C1[C@H]2CCCC[C@@H]12)NC1CCCCC1 (some centres not stated)	i	0.01
O=C(CNC(=S)N(Cc1ccccc1)Cc1cccnc1)NCc1ccccc1	i	-1.1
COc1cccc(C(=O)COC(=O)c2ccc(NC(C)=O)cc2)c1	i	-0.71
Cc1ccc(S(=O)(=O)c2ccccc2)cc1S(=O)(=O)N1CCOCC1	i	0.23
COc1ccc(CCc2nnc(CCC(=O)NCCc3ncccc3C)o2)cc1	i	1.3
CCCN1Cc2cccc(C(=O)NCc3ccc(C)cc3)c2C1=O	i	0.62
O=C(CSc1ccc(Cl)cc1)NCc1ccncc1	i	2.3
CC(C)(C)c1cc(=O)n2c(nc3ccccc32)[nH]1	i	-0.92
CC(=O)NCCOc1cccc(OCCNC(C)=O)c1	i	-0.08
COc1cc(NC(=O)C2CCN(S(=O)(=O)c3cnc[nH]3)CC2)cc(OC)c1OC	i	0.47

More compounds
SMILES	KCNQ2 block	KCNQ2 block baseline
COc1cccc2sc(N3CCN(C(=O)C4COc5ccccc5O4)CC3)nc12 (configuration not stated)	i	0.01
O=C(Nc1ccc(NC(=O)C2CCCN2C(=O)OCc2ccccc2)cc1)c1ccco1 (configuration not stated)	i	-0.6
COc1ccc(-c2nc3ccccc3c(=O)n2CC(C)C)cc1	i	-1.5
O=C(CN(c1ccc(F)cc1)S(=O)(=O)c1ccc2c(c1)OCCO2)Nc1cccnc1	i	0.24
O=C(CSc1ccccc1)Nc1ccccc1N1CCOCC1	i	0.67
CC(=O)N/C(=N\OCc1ccc(Br)cc1)c1nonc1NC(C)=O	i	1.7
CC(=O)N(CCC(Cc1ccccc1)c1ccc2c(c1)OCO2)Cc1ccc(Cl)cc1 (configuration not stated)	-10*	-0.17*
COC(=O)c1c(NC(=O)c2c(-c3ccccc3Cl)noc2C)sc2c1CCC2	i	1
COc1ccc2nnc(-c3ccccc3)n2n1	i	2.2
CC12COC3(C(=O)NCCc4ccccc4)CC1CCC32C (configuration not stated)	i	-0.09
O=C(COC(=O)Cc1cccs1)Nc1ccccc1	i	-0.18
Cc1cc(NC(=O)c2ccccc2Cl)no1	i	0.54
O=C(COC(=O)Cn1cnc2ccccc2c1=O)Nc1ccc2c(c1)OCO2	i	0.21
CCC1(c2ccc(F)cc2)NC(=O)N(CC(=O)N2CCOCC2)C1=O (configuration not stated)	i	0.54
COc1ccc2nc(/C=N/NC(=O)[C@@H]3CCCN3C(=O)OC(C)(C)C)ccc2c1	i	-1.4
C=CCn1c(CNC(=O)c2cccs2)nnc1SCc1ccc(Cl)cc1Cl	i	-0.21
COc1cc(NC(=O)c2ccccc2NS(=O)(=O)c2ccc(Cl)s2)cc(OC)c1	i	0.76
Cc1ccc(N=Cc2c(C)[nH]n(-c3ccccc3)c2=O)nc1	i	0.37
CS(=O)(=O)N1CCN(C(=O)c2ccccc2)C1	i	2
CN(CCCn1c(=S)[nH]c2ncccc2c1=O)Cc1ccccc1	i	1.1

2 entries picked at random from those above, as already listed:
SMILES	KCNQ2 block	KCNQ2 block baseline
CS(=O)(=O)N1CCN(C(=O)c2ccccc2)C1	i	2
C=CCn1c(CNC(=O)c2cccs2)nnc1SCc1ccc(Cl)cc1Cl	i	-0.21

Some of the compounds tested (hit frequency here may not be typical).
